Screening results deposited in PubChem BioAssay by National Center for Advancing Translational Sciences (NCATS).
Rango-impB inh = qHTS Assay for Inhibitors of Rango (Ran-regulated importin-beta cargo) - Importin beta complex formation; Importin subunit beta-1 (Homo sapiens), Q14974; Rango CFP/YFP FRET sensor + importin beta, 45 min; Potency, µM (top dose mostly 92.2 µM), inactives show top-dose inhibition of complex formation; 340,000 tested, 0.031% active; active = rising FRET ratio curve, often small or poorly fitted; inconclusive = mostly compound fluorescence or quenching in the first reads; inactive = flat curves in all reads;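 note: potency is the fitted concentration of half-maximal effect; 0% = DMSO wells and 100% = buffer wells lacking importin beta; nearly all actives have a fitted effect of over 15% in size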
Target sequence (Q14974 whole entry, looked up): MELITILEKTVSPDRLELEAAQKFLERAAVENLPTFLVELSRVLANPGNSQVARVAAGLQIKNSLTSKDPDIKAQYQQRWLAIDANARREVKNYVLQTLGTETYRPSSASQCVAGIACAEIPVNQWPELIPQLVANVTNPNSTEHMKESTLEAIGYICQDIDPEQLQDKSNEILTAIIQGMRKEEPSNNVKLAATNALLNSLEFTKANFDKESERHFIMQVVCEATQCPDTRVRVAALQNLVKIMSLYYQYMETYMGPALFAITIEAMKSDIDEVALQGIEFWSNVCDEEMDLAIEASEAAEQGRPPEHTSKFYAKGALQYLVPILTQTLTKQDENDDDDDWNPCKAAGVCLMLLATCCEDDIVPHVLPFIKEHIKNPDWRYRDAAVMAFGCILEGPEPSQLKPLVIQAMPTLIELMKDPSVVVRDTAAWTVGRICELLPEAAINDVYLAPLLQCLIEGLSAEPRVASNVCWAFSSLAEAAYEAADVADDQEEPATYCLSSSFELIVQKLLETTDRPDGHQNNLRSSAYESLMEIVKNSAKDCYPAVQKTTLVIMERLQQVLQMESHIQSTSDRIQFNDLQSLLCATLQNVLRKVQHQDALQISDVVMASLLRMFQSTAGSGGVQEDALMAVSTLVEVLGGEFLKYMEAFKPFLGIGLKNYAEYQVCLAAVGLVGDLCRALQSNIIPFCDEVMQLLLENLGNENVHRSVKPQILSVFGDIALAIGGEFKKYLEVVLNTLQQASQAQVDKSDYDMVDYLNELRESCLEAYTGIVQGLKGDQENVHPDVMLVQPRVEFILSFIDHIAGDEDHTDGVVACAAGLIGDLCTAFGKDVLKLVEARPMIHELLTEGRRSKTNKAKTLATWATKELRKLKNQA
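Inhibition scored from the CFP 486 nm/YFP 530 nm FRET ratio 45 min after adding 0.125 microM importin beta to 50 nM Rango biosensor preincubated 5 min with compound (room temperature, PBS with DTT, Tween-20, BSA). No-importin wells as positive control.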
Rango release inh = qHTS Assay for Inhibitors of RanGTP induced Rango (Ran-regulated importin-beta cargo) - Importin beta complex dissociation. Snurportin-1 (Homo sapiens) + GTP-binding nuclear protein Ran (Homo sapiens) + Importin …. Biochemical FRET Rango-importin beta, RanGTP-induced dissociation. Potency, µM (series often up to 46.1 µM), without a hit: top-dose activity change, negative = inhibition. 340,000 tested, 0.071% active. AID 540253, 2011; active means falling FRET ratio curve, often poorly fitted, with flat reads before Ran was added; inconclusive means other falling curves, or compound fluorescence or quenching; inactive means flat or rising ratio curve;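 note: potency is the fitted concentration of half-maximal effect; % of control where 0% means no effect; nearly all actives have a fitted effect of over 45% in size; -100% = wells without RanGTP and RCC1; the record marks most hits as doubtful in a second field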
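Recombinant Rango FRET biosensor (EYFP–snurportin 1 IBB–cerulean CFP10) at 0.1 uM premixed with 0.25 uM importin beta in PBS, 1 mM DTT, 0.02% Tween-20, 0.1% BSA. Compound added 5 min; RanGTP-RCC1 (0.6 uM Ran, 2 mM GTP, 0.2 uM RCC1) then triggers release, read at 45 min.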
miR-21 reporter = qHTS Assay for Modulators of miRNAs and/orActivators of miR-21; HeLa miR-21 FLuc reporter, luciferase, 48 h; Potency, µM (doses to about 38.3 µM), without a hit: top-dose reporter change, positive = more light; 340,000 tested, under 10 active; AID 2288, 2010; active = well fitted rising curve with a large enough effect; inconclusive = small, poorly fitted or top-dose-only effect; inactive = no such curve, though single readings can be large or run the other way;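 note: % of control where 0% means no effect; miR-21 action dims this reporter so a rising signal means less miR-21 action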
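HeLa cells endogenously expressing miR-21, stably carrying CMV-driven firefly luciferase with a downstream miR-21 binding site, 2000 cells/well. Titrations up to approximately 40 uM, 48 hours; luciferase luminescence read.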
GLA inh pH 4.5 = qHTS Assay for Inhibitors of Human alpha-Galactosidase at pH 4.5; Alpha-galactosidase A (Homo sapiens), P06280; purified enzyme, 4-MU-alpha-Gal fluorescence, pH 4.5; activity change, negative = inhibition, % at 105 µM; 230,000 tested, under 10 active; inconclusive = small, poorly fitted or top-dose-only inhibition, or a rising curve; inactive = flat fitted curve, though single readings scatter; no compound was filed as active;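 note: 0% = full activity with enzyme and -100% = basal without enzyme; dose as in the result columns while the protocol names 77 µM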
Active calls of the source: *; ? = inconclusive; . = no result given; & = joins results of further samples.

cpd	Rango release inh	GLA inh pH 4.5	Rango-impB inh	miR-21 reporter	canonical_smiles
1	0%	.	1.4%	4%	CCC(C)NS(=O)(=O)c1cc2c3c(c1)CCC(=O)N3CCC2 (centres undefined)
2	13%	4	4.6%	5%	CC(=O)c1c(O)c(C)c(O)c2c1OC1=CC(=O)C(C(C)=O)C(=O)[C@@]12C (some centres undefined)
3	19%	1	-4.2%	-6%	CC1CCCCC1NS(=O)(=O)c1ccc(S(=O)(=O)N2CCCC2)cc1 (centres undefined)
4	-18%	-9	-0.5%	-43%	CC(=O)Cn1nnc2sc3c(c2c1=O)CCC(C(C)(C)C)C3 (centres undefined)
5	-1%	0	?	-48%	CC1CCN(C(=O)C2CC(c3ccc(F)cc3)=NO2)CC1 (centres undefined)
6	-3%	4	-0.5%	-2%	CC(=O)NC(CC(C)C)C(=O)NC(=O)NCc1ccccc1 (centres undefined)
7	?	-6	?	2%	CCOc1ccccc1C(=O)OCC(=O)Nc1ccc(OC(F)F)cc1
8	8%	1	-0.5%	1%	CCNc1nc(NC(C)C)nc(NC(C)(C)C)n1

Three entries out of the list, arranged by heavy-atom count, high to low:
cpd	Rango release inh	GLA inh pH 4.5	Rango-impB inh	miR-21 reporter	canonical_smiles
2	13%	4	4.6%	5%	CC(=O)c1c(O)c(C)c(O)c2c1OC1=CC(=O)C(C(C)=O)C(=O)[C@@]12C (some centres undefined)
4	-18%	-9	-0.5%	-43%	CC(=O)Cn1nnc2sc3c(c2c1=O)CCC(C(C)(C)C)C3 (centres undefined)
5	-1%	0	?	-48%	CC1CCN(C(=O)C2CC(c3ccc(F)cc3)=NO2)CC1 (centres undefined)

Filtered by structure: those above containing sulfur.
cpd	Rango release inh	GLA inh pH 4.5	Rango-impB inh	miR-21 reporter	canonical_smiles
1	0%	.	1.4%	4%	CCC(C)NS(=O)(=O)c1cc2c3c(c1)CCC(=O)N3CCC2 (centres undefined)
3	19%	1	-4.2%	-6%	CC1CCCCC1NS(=O)(=O)c1ccc(S(=O)(=O)N2CCCC2)cc1 (centres undefined)
4	-18%	-9	-0.5%	-43%	CC(=O)Cn1nnc2sc3c(c2c1=O)CCC(C(C)(C)C)C3 (centres undefined)

Next part:
cpd	Rango release inh	GLA inh pH 4.5	Rango-impB inh	miR-21 reporter	canonical_smiles
9	13%	-2	1.8%	-4%	COc1ccc(-c2c(C)oc3c(CN4CCN(C)CC4)c(O)ccc3c2=O)cc1
10	-10%	-4	1.5%	21%	CCCC(=O)Nc1ccc(Sc2ccc([N+](=O)[O-])cc2)cc1
11	9%	.	4.0%	18%	COc1ccccc1-c1nnc(NC(=O)c2ccc(S(=O)(=O)N(C)CC3CCCO3)cc2)o1 (centres undefined)
12	-7%	-3	0.8%	-1%	Cc1c(CN2CCCC(C(=O)c3cccc(Cl)c3)C2)c(=O)n(-c2ccccc2)n1C (centres undefined)
13	0%	-10	-3.7%	-3%	CCCN1CCN(CCCNC(=O)C2CCCN(c3nnc(-n4cccc4)s3)C2)CC1 (centres undefined)
14	0%	-2	3.7%	2%	Cn1nnc(NC(=O)CSc2nnnn2-c2ccc(F)cc2)n1
15	-12%	-3	-0.7%	-5%	COc1ccccc1CC(=O)Nc1ccccc1O
16	7%	-7	2.6%	2%	CCn1c(SCC(=O)Nc2ccccc2C)nnc1-c1ccccc1O
17	2%	0	-2.8%	-4%	Cc1nc2nc[nH]n2c(=O)c1NC(=O)c1cccc(OCC(C)C)c1
18	3%	-15	-3.5%	1%	CO/N=C/C(=N\Nc1ccc(OC)cc1)C(=O)c1ccc(F)cc1
19	-23%	-6	-3.2%	-17%	O=C(Nc1ccc([N+](=O)[O-])cc1)C1CC12CCC2 (centres undefined)
20	1%	-2	0.7%	-4%	CC1(C)C2CCC1(C(=O)O)c1nc3ccccc3nc12 (centres undefined)
21	2%	2	2.8%	-1%	COC(=O)CCC/C=C1/SCC(NC(=O)c2ccccc2)/C1=N/O (centres undefined)
22	-10%	3	-3.4%	3%	CCC(=O)Nc1cc(C(=O)OC(C(=O)c2ccc(C)c(C)c2)c2ccccc2)ccc1C (centres undefined)
23	16%	4	-1.9%	-2%	Cc1ccccc1N1C(=O)C2ON(c3ccccc3)C(c3ccco3)C2C1=O (centres undefined)
24	-11%	4	-2.2%	1%	Cc1cc(NCCO)c2ccccc2n1
25	6%	5	-0.3%	-1%	O=C(CSc1nnc(Cn2nnc3ccccc32)o1)Nc1cccc(Cl)c1
26	-2%	2	-0.3%	-1%	COc1ccc(OC)c(NC(=O)CSc2ccc3ccccc3c2)c1
27	.	-10	.	-38%	O=C(NCCN1C(=O)S/C(=C\c2cccs2)C1=O)c1ccc(=O)[nH]c1
28	12%	.	-11%	0%	C[C@H]([C@H](O)c1ccccc1)N(C)C(=O)CN
29	-8%	.	1.6%	.	COc1ccccc1CC(=O)Nc1ccc(S(=O)(=O)N2CC(C)CC(C)C2)cc1 (centres undefined)
30	-9%	17	-0.9%	-17%	Cc1nn2c(-c3ccco3)nnc2c2ccccc12
31	3%	-2	0.6%	-1%	CCCn1c(SCC(=O)Nc2cc(S(=O)(=O)N3CCOCC3)ccc2Cl)n[nH]c1=O
32	-6%	6	0.0%	2%	CC1CCC2(CC1)N=C(N)Nc1nc3ccccc3n12 (centres undefined)
33	0%	4	1.1%	-3%	S=C(NCCc1ccccc1)Nc1ccccc1N1CCOCC1
34	0%	.	2.0%	-2%	Cc1cc(N)nc(SCC(=O)N2C(C)CCCC2C)n1 (centres undefined)
35	3%	-5	-0.8%	-4%	COc1ccc(CNCc2cccc(Oc3ccccc3)c2)cc1
36	-5%	5	-3.7%	-36%	CCOC(=O)c1ccc(COC(=O)c2cc3ccccc3oc2=O)o1
37	1%	-14	1.7%	-8%	CCc1ccc(C(=O)NNC(=O)OC)cc1
38	.	1	.	18%	O=c1c2ccccc2nc2c3ccccc3c(NCCN3CCOCC3)nn12
39	-9%	.	1.9%	.	Cc1ccccc1Nc1nnc(SCC(=O)NCC2CCCO2)s1 (centres undefined)
40	21%	0	5.0%	-44%	O=C(Nc1ccccc1)C1=C[C@@H](c2ccccc2)C[C@@H](OCc2ccc(CO)cc2)O1
41	1%	.	-0.6%	-16%	Cc1ccc(C(=O)ONC(=O)c2ccc(Cl)cc2)cc1[N+](=O)[O-]
42	-13%	.	-3.8%	0%	COc1ccc(CNC(=O)c2ccc(Cn3cc(Br)cn3)o2)cc1
43	-8%	-2	-1.1%	-17%	Cn1c(CSc2nc3ccccc3s2)n[nH]c1=S
44	29%	-3	-0.2%	-16%	Cc1cccc(Nc2n[nH]c(=S)s2)c1C
45	?	20	?	?	CCn1c2ccccc2c2c3ncc4cccn4c3ccc21
46	13%	1	-6.8%	-62%	Cc1cc(NC(=O)c2ccco2)ccc1-n1cnnn1
47	0%	.	-3.7%	.	Cc1ccc(C(=O)OCC(=O)NCc2cccs2)s1
48	?	.	3.7%	-3%	CCOC(=O)C1CCCN(CC(O)COCc2ccccc2OC)C1 (centres undefined)
49	.	-8	.	-7%	Cc1nc(N2CCCCC2)sc1C=O
50	-17%	4	-0.4%	0%	COc1ccc(N2CCN(CC(=O)N3CCC(C)CC3)CC2)cc1
51	8%	.	0.5%	0%	COc1cccc(C(=O)COc2ccc(NC(=O)c3cccs3)cc2)c1
52	-2%	.	0.2%	-26%	COc1ccccc1-c1c(C)nn2c(N)c(-c3ccccc3)cnc12
53	?	.	?	-3%&4%	CC(=O)Nc1ccc(S(=O)(=O)Nc2ccc3c(c2)n(C)c(=O)n3C)c(C)c1
54	3%	-9	-5.2%	1%	CCOC(=O)c1sc(=S)n(CC)c1NC(=O)c1ccccc1C
55	1%	-1	?	2%	O=C(Cc1nc(-c2ccc(Br)s2)cs1)NCCN1CCOCC1
56	3%	-2	-0.3%	-4%	Cc1cc(C(=O)OCc2nnc(-c3ccccc3)o2)c(C)n1-c1ccccc1

Filtered by structure: those above with fluorine
cpd	Rango release inh	GLA inh pH 4.5	Rango-impB inh	miR-21 reporter	canonical_smiles
5	-1%	0	?	-48%	CC1CCN(C(=O)C2CC(c3ccc(F)cc3)=NO2)CC1 (centres undefined)
7	?	-6	?	2%	CCOc1ccccc1C(=O)OCC(=O)Nc1ccc(OC(F)F)cc1
14	0%	-2	3.7%	2%	Cn1nnc(NC(=O)CSc2nnnn2-c2ccc(F)cc2)n1
18	3%	-15	-3.5%	1%	CO/N=C/C(=N\Nc1ccc(OC)cc1)C(=O)c1ccc(F)cc1

(further entries)
cpd	Rango release inh	GLA inh pH 4.5	Rango-impB inh	miR-21 reporter	canonical_smiles
57	4%	-4	0.1%	0%	CCN1C(=O)/C(=C/c2nc3ccccc3c(=O)n2-c2ccc(C)cc2)c2ccccc21
58	-7%	.	1.6%	10%	COc1ccccc1NS(=O)(=O)c1ccc2c(c1)N(C(C)=O)CC(C)S2 (centres undefined)
59	-7%	2	-5.4%	-1%	Cc1ccc(NC(=O)Cn2nc(C)c(S(=O)(=O)N(C)C)c2C)cc1C
60	1%	2	2.8%	9%	O=S(=O)(NC1=NCCCCC1)c1ccc2sc(NS(=O)(=O)c3ccc4ccccc4c3)nc2c1
61	-5%	-2	-3.7%	-3%	O=C(NN=C1CCCC1)NC1CCCCC1
62	0%	.	-1.5%	-4%	CCOC(=O)C(N)CSC1CC(=O)N(c2ccc(OCC)cc2)C1=O (centres undefined)
63	-9%	.	-1.1%	.	CCCCn1c(N)c(N(CC(C)C)C(=O)CSc2nn(-c3ccc(F)cc3)c(=S)s2)c(=O)[nH]c1=O
64	-12%	-5	?	-3%	CCOc1ccccc1C(=O)N/N=C/c1c[nH]c2ccccc12
65	-8%	6	2.9%	-3%	Cc1noc(C)c1C(=O)OCC(=O)Nc1cccc(S(N)(=O)=O)c1
66	4%	.	3.7%	.	COc1ccccc1N(CCOc1ccccc1)S(=O)(=O)c1ccccc1
67	7%	.	3.2%	.	O=C1CCc2cc(S(=O)(=O)NCc3ccccc3Cl)ccc2N1
68	7%	0	3.2%	-3%	CCCC(O)(CCN1CCCCC1)c1ccc(OCC)cc1 (centres undefined)
69	13%	.	0.1%	.	Cc1ccnc(NC(=O)CNC(=O)c2ccc(Br)o2)c1
70	-2%	12	-6.2%	-5%	CCCCC(=O)NC(c1ccco1)c1c(O)ccc2ccccc12 (centres undefined)
71	23%	1	-3.0%	-9%	CS(=O)(=O)N1CCN(c2ccc(NC(=O)c3cccnc3Cl)cc2)CC1
72	53%	-2	5.1%	-9%	COc1ccccc1C(=O)N/C(=C/c1ccc(Br)cc1)C(=O)N1CCCC1
73	25%	.	0.4%	-83%	COc1ccc(C(=O)NCCOc2ccccc2Cl)c(OC)c1OC
74	-2%	3	9.1%	-15%	O=C(COC(=O)c1n[nH]c2ccccc12)NC(=O)NC12CC3CC(CC(C3)C1)C2

The list is partial; rates above refer to the full screens.
